Bead autofluor = compound fluorescence in toxin protease inhibitor counterscreen. compound autofluorescence counterscreen, microsphere flow cytometry; stronger effect = higher value. actives 3.1% (n = 360,000). fluorescence intensity (concentration not given with the values);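 active = at least 3 SD above the mean of all compounds, about 16000 in these data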;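 note: 100 nL of 1 mM stock went into each well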
* hit, by the source's call.

Preview:
SMILES	Bead autofluor
CNc1cncc(-c2cccc(C(C)=O)c2)n1	3873
N#CN=CN1CC=C(c2ccc(Cl)cc2)CC1	4192
CN1CCCC(C(=O)Nc2cccc(Cl)c2)CC1 (centres undefined)	2866
Cc1ccc(-c2nc3c4ccccc4ccn3c2Cc2ccccc2)cc1	3348
CCCCC(=O)N(C)c1c(CC)nc2c(OCc3ccc(Cl)cc3Cl)cccn12	3968
CN(C)S(=O)(=O)c1cccc(NC(=O)c2ccccc2SCC(=O)N2CCCC2)c1	3665
CCCCC[C@@H]1CCCCC[C@H](O)C[C@@H](O)[C@@H](O)/C=C/C(=O)O1	4056
CCOC(=O)CCCCCC(=O)Nc1ccc2c(c1)C(=O)N([C@@H](C)CO)C[C@@H](C)[C@H](CN(C)C(=O)Nc1ccccc1)OCCCC[C@H](C)O2	3699
COc1ccc(CC2=NCCc3cc(OC)c(OC)cc32)cc1OC	7273
CN(C)C(=O)c1cccc(COc2ccc(N3C(N)=NC(N)=NC3(C)C)cc2Cl)c1	4089
N#Cc1cccc(NC(=O)c2cc(C3CCCCN3S(=O)(=O)c3cccc4cccnc34)on2)c1 (centres undefined)	3846
Cc1ccccc1S(=O)(=O)NC(=O)C1(C)CCN1C(=O)C1(c2ccccc2)CC1 (centres undefined)	4164
CCN1C(=O)[C@H]2[C@@H](c3ccc(C(F)(F)F)cc3)N[C@]3(CCCN(Cc4ccccc4)C3=O)[C@H]2C1=O	3658
CN[C@H]1C[C@H]2c3[nH]c4ccccc4c3CCN2C(=O)[C@H]1[C@H](C)O	3019
COc1ccccc1N1CCN(S(=O)(=O)CCNC(=O)CCc2ccccc2)CC1	3874
CCCc1c(-c2cccc(Br)c2)ncn1Cc1ccccc1OC	4489
CCCCc1ccc(S(=O)(=O)NC(=O)C2(C)CCN2C(=O)c2cccc(F)c2)cc1 (centres undefined)	4076
O=C(NCCN1CCC(n2c(=O)[nH]c3ccccc32)CC1)c1ccc(C(F)(F)F)cc1C(F)(F)F	6452
CCCS(=O)(=O)NC(=O)C1(C)CCCN(C(=O)c2ccc(SC(F)(F)F)cc2)C1 (centres undefined)	3787
C[C@@H]1CN([C@H](C)CO)C(=O)CCCn2nncc2CO[C@H]1CN(C)Cc1ccc2c(c1)OCCO2	2935
CN(C)c1ccc(-c2ccnc3c2CC(C)(C(=O)Nc2cccc(N(C)C)c2)O3)cc1 (centres undefined)	4867
CC(C)C[C@H]1COc2cc(N3CC[C@H](O)C3)ccc2S(=O)(=O)N1	6644
CCN1C(=O)[C@H]2[C@@H](c3ccc(C)cc3)N[C@]3(CCCN(Cc4ccccc4)C3=O)[C@H]2C1=O	3622

This part in full (from the top)
SMILES	Bead autofluor
CNc1cncc(-c2cccc(C(C)=O)c2)n1	3873
N#CN=CN1CC=C(c2ccc(Cl)cc2)CC1	4192
CN1CCCC(C(=O)Nc2cccc(Cl)c2)CC1 (centres undefined)	2866
Cc1ccc(-c2nc3c4ccccc4ccn3c2Cc2ccccc2)cc1	3348
CCCCC(=O)N(C)c1c(CC)nc2c(OCc3ccc(Cl)cc3Cl)cccn12	3968
CN(C)S(=O)(=O)c1cccc(NC(=O)c2ccccc2SCC(=O)N2CCCC2)c1	3665
CCCCC[C@@H]1CCCCC[C@H](O)C[C@@H](O)[C@@H](O)/C=C/C(=O)O1	4056
CCOC(=O)CCCCCC(=O)Nc1ccc2c(c1)C(=O)N([C@@H](C)CO)C[C@@H](C)[C@H](CN(C)C(=O)Nc1ccccc1)OCCCC[C@H](C)O2	3699
COc1ccc(CC2=NCCc3cc(OC)c(OC)cc32)cc1OC	7273
CN(C)C(=O)c1cccc(COc2ccc(N3C(N)=NC(N)=NC3(C)C)cc2Cl)c1	4089
N#Cc1cccc(NC(=O)c2cc(C3CCCCN3S(=O)(=O)c3cccc4cccnc34)on2)c1 (centres undefined)	3846
Cc1ccccc1S(=O)(=O)NC(=O)C1(C)CCN1C(=O)C1(c2ccccc2)CC1 (centres undefined)	4164
CCN1C(=O)[C@H]2[C@@H](c3ccc(C(F)(F)F)cc3)N[C@]3(CCCN(Cc4ccccc4)C3=O)[C@H]2C1=O	3658
CN[C@H]1C[C@H]2c3[nH]c4ccccc4c3CCN2C(=O)[C@H]1[C@H](C)O	3019
COc1ccccc1N1CCN(S(=O)(=O)CCNC(=O)CCc2ccccc2)CC1	3874
CCCc1c(-c2cccc(Br)c2)ncn1Cc1ccccc1OC	4489
CCCCc1ccc(S(=O)(=O)NC(=O)C2(C)CCN2C(=O)c2cccc(F)c2)cc1 (centres undefined)	4076
O=C(NCCN1CCC(n2c(=O)[nH]c3ccccc32)CC1)c1ccc(C(F)(F)F)cc1C(F)(F)F	6452
CCCS(=O)(=O)NC(=O)C1(C)CCCN(C(=O)c2ccc(SC(F)(F)F)cc2)C1 (centres undefined)	3787
C[C@@H]1CN([C@H](C)CO)C(=O)CCCn2nncc2CO[C@H]1CN(C)Cc1ccc2c(c1)OCCO2	2935
CN(C)c1ccc(-c2ccnc3c2CC(C)(C(=O)Nc2cccc(N(C)C)c2)O3)cc1 (centres undefined)	4867
CC(C)C[C@H]1COc2cc(N3CC[C@H](O)C3)ccc2S(=O)(=O)N1	6644
CCN1C(=O)[C@H]2[C@@H](c3ccc(C)cc3)N[C@]3(CCCN(Cc4ccccc4)C3=O)[C@H]2C1=O	3622
CC1CCCN(C(=O)c2cccc(S(=O)(=O)NCc3ccccc3)c2)C1 (centres undefined)	2925
COC(=O)c1cccc(N2C(=O)C[C@](Sc3ccc(C)cc3)(C(=O)OC)[C@H]2c2ccccc2)c1	5587
CCCC(=O)N1CCC1(C)C(=O)NS(=O)(=O)c1cccc(Cl)c1 (centres undefined)	4072
O=[N+]([O-])c1ccc(CN2CC(N3CCC(Cc4ccccc4)CC3)CS2(=O)=O)cc1 (centres undefined)	2999
Cc1ccc(Cc2c(-c3ccco3)nc3c4ccccc4ccn23)cc1	7327
C[C@H](CO)N1C[C@H](C)[C@@H](CN(C)C(=O)C2CC2)OCc2cnnn2CCCC1=O	3623
CCC1(C)CC(C#N)(C#N)C(=O)NC1=O (centres undefined)	4331
OCC1OC(n2cnc3ncccc32)C(O)C1O (centres undefined)	5292
CCCc1nc2ccc(C)cn2c1Cc1ccc(C)cc1	4899
COc1ccc(C(C)=O)cc1Cn1c(C)c(C(=O)NC2CC2)sc1=O	5711
Cc1nnsc1C(=O)N1CCCC(C)(C(=O)NS(=O)(=O)C2CC2)C1 (centres undefined)	3000
CC(=O)Nc1cccc(-c2csc(C(O)c3ccc(F)cc3)n2)c1 (centres undefined)	4012
OC(c1ccc2ccccc2c1)c1ncc(-c2cccc3ccccc23)[nH]1 (centres undefined)	2929
C[C@@H]1CN([C@H](C)CO)C(=O)CCCn2nncc2CO[C@@H]1CN(C)C(=O)Oc1ccccc1	3373
CCOC(=O)CCCCCC(=O)Nc1ccc2c(c1)C(=O)N([C@H](C)CO)C[C@H](C)[C@@H](CN(C)S(C)(=O)=O)OCCCC[C@@H](C)O2	3574
CCNC(=O)c1cc2c(c(-c3cccc(-c4ccccc4F)c3)n1)[C@@H](CCO)N(C(=O)CC1CC1)C2	6566
Cc1nc2c(OCc3ccc(OC(F)F)cc3)cccn2c1N(C)C(=O)CCC1CCCC1	3757
COc1ccc(Cc2c(-c3ccc(Cl)cc3)nc3cc(C)c(Br)c(C)n23)c(C)c1	6408
CCCS(=O)(=O)NC(=O)C1(C)CCN(C(=O)c2ccc(OC)cc2OC)C1 (centres undefined)	3744
CN(C(=O)CN1CCN(c2cc(-c3ccc(-c4ccccc4)cc3)ncn2)CC1)c1ccccc1	3981
COc1ccc(C)cc1-n1cnc2sc(C)c(C)c2c1=O	3944
O=C(NCc1ccc(F)cc1)c1cc(C2CCCCN2C(=O)c2cccs2)on1 (centres undefined)	3582
O=C(NCc1ccncc1)[C@@H]1CCCN1C(=O)[C@H]1CCCN1C(=O)c1cccc2ccccc12	5166
CC(C)C1C(=O)N(Cc2cn(Cc3ccco3)nn2)CCS(=O)(=O)N1Cc1ccc(-c2ccncc2)cc1 (centres undefined)	3680
CCCNC(=O)C1(C)CCCN(Cc2cc3ccccc3o2)C1 (centres undefined)	4010
CC1(Cc2ccc(OC(F)(F)F)cc2)C(=O)Nc2ccc(OC(F)(F)F)cc21 (centres undefined)	3780
O=C1c2ccccc2C(c2nnnn2Cc2ccccc2)N1CCc1c[nH]c2ccccc12 (centres undefined)	6300
The listing continues:
SMILES	Bead autofluor
O=C(O)c1ccc(CNC(=O)C2CCN(S(=O)(=O)c3ccc4c(c3)OCCO4)CC2)cc1	3322
Nc1ncnc2c1ncn2[C@@H]1O[C@H](C(=O)NS(=O)(=O)c2ccccc2[N+](=O)[O-])[C@@H](O)[C@H]1O	5612
O=C(C(=Cc1ccccc1)c1ccccc1)c1ccccc1	5698
COc1ccc(Nc2cc(C)nc3ccc(C)cc23)cc1	3028
COc1ccc(Cc2c(C(C)(C)C)nc3ccc(Br)cn23)c(C)c1	6499
CCCCn1nnnc1C1(C)CCC(=O)N1CCCN1CCOCC1 (centres undefined)	5024
CCN(C(=O)c1ccc(NC(=O)C2CCCCC2C(=O)O)cc1)c1ccccc1 (centres undefined)	3796
CC(C)C[C@H]1CN(CCCC[C@H]2CNC(=O)C(=O)N2CC2CCCCC2)C(=O)C(=O)N1CC1CCCCC1	5155
O=C(Nc1nnc([C@H]2C[C@H](O)[C@@H](CO)O2)s1)c1cccc(OC(F)(F)F)c1	3922
C(=C\c1ccccc1)/CN1CCN(C(c2cccs2)c2nnnn2-c2ccc3c(c2)OCCO3)CC1 (centres undefined)	5500

2 entries picked at random from the list so far, as already listed:
SMILES	Bead autofluor
COc1ccc(Cc2c(C(C)(C)C)nc3ccc(Br)cn23)c(C)c1	6499
O=C(C(=Cc1ccccc1)c1ccccc1)c1ccccc1	5698

Additional structures.
SMILES	Bead autofluor
CCC(=O)[C@@H](C)[C@@H](O)[C@H](C)C[C@@H](C)C1OC(=O)C[C@@]2(O)CC=C(C)C(O2)C(C)=CCCC[C@H](O[C@H]2C[C@@H](OC(N)=O)[C@H](O)[C@@H](C)O2)C=C[C@H](C)C[C@H]1C (some centres undefined)	6225
O=C(COC(=O)c1ccc(Cl)c(S(=O)(=O)N2CCCCC2)c1)NC1CCCCC1	3721
CCOC(=O)C1(C)CCN1C(=O)COc1ccc(C(C)(C)C)cc1 (centres undefined)	3412
O=C1NC[C@H](Cc2ccc(O)cc2)N(C[C@H]2CCCN2C[C@H](Cc2ccc(O)cc2)N2C[C@H](Cc3ccc(O)cc3)N(CCc3ccccc3)C(=O)C2=O)C1=O	6441
COC(=O)[C@]12CCCCC=C1N(Cc1cccc3ccccc13)C(=O)[C@H](CC(=O)NCc1ccc(OC)c(OC)c1)C2	4447
NC(Cc1ccc(Cl)cc1)c1csc(Nc2cc(NCCCO)ncn2)n1 (centres undefined)	3416
Nc1cc(=O)c2[nH]cnc2[nH]1	2932
COc1ccc(C(C)(NC(C)=O)c2nc(-c3cccc(C#N)c3)cs2)cc1 (centres undefined)	3038
CC(C)NC(=O)Nc1ccc2c(c1)C(=O)N([C@@H](C)CO)C[C@H](C)[C@H](CN(C)S(=O)(=O)c1ccccc1)OCCCC[C@H](C)O2	3346
CC1(C(=O)NS(=O)(=O)c2cccs2)CCN1C(=O)CC1CCCC1 (centres undefined)	2814
CC(=O)Nc1ccc(NC(=O)c2cc(-c3cc(F)ccc3OCC3CCCO3)n[nH]2)cc1 (centres undefined)	4084
O=CNc1cc(-c2cccc(O)c2)cn2c(-c3ccc(F)cc3)cnc12	3406
CN(C)CCNc1ncnc2c1ncn2[C@H]1CN(CCc2ccccc2)C[C@@H](CO)O1	2774
Cc1ccc2c(c1)CCO[C@]21O[C@H](CCO)C[C@H](O)[C@H]1O	3681
CC(C)(C)Cc1c(-c2ccc(Br)cc2)nc2ccc(Br)cn12	2997
O=C(Nc1cccc(C(F)(F)F)c1)C1Cc2c(-c3ccccc3)ccnc2O1 (centres undefined)	3587
CCC(CC)C(=O)N(C)c1c(C)nc2c(OCCOc3ccccc3)cccn12	4142
COc1cc(OC)cc(C2=Cc3ccccc3C(CC(=O)c3ccco3)N2c2ccc(-c3cncnc3)cc2)c1 (centres undefined)	5940
CCc1nc2ccc(C(=O)NCCc3ccccn3)cn2c1N(C)Cc1cccs1	2918
COc1cc(-c2coc3c(C(=O)NCc4cccc(Cl)c4)cccc23)ccc1O	4365
COc1ccc(NC(=O)c2cc(-c3cc(F)ccc3OC(C)C)n[nH]2)cc1OC	2856
CC(=O)Nc1ccc(CN2C(=O)C(CCc3ccccc3)ON=C2c2cnccn2)cc1 (centres undefined)	5765
CC(C)(C)c1ccc(C(=O)N2CCC2(C)C(=O)NCCC#N)cc1 (centres undefined)	3936
O=C(O)c1ccc2c(c1)S(=O)(=O)c1cc(N3CCN(c4cnccn4)CC3)ccc1C2=O	2970
CCOCCCNC(=O)Cn1cc2c(n1)-c1c(oc(C(=O)N3CCCC3)c1C)CC2	3668
COC(=O)[C@]12CCCCC=C1N(Cc1ccco1)C(=O)[C@H](CC(=O)NCc1cccs1)C2	5754
CC(C)C[C@H]1CN([C@@H](CC(C)C)CN2CCC[C@H]2CN2C(=O)C(=O)NC[C@@H]2Cc2ccc(O)cc2)C(=O)C(=O)N1CC1CCCCCC1	5689
COC(=O)C[C@H]1C[C@H]2c3cc(NC(=O)C4CCC4)ccc3O[C@H]2[C@H](CO)O1	3481
CCCS(=O)(=O)NC(=O)C1(C)CCN(C(=O)c2ccc(OC(F)F)cc2)C1 (centres undefined)	3825
CC(C)NC(=O)Nc1ccc2c(c1)C(=O)N([C@H](C)CO)C[C@H](C)[C@@H](CN(C)Cc1ccc3c(c1)OCO3)OCCCC[C@@H](C)O2	2946
S=C(NCCCc1cnc[nH]1)NCCCN(Cc1ccccc1)c1ccc(Br)cn1	3668
Cc1cn([C@H]2C[C@H](O)[C@@H](CNCc3ccc(-c4cc(Cl)ccc4C(F)(F)F)o3)O2)c(=O)[nH]c1=O	3704
O=C1NC[C@@H](CCCCN2C[C@H](Cc3ccccc3)N(CCc3ccccc3)C(=O)C2=O)N(Cc2ccccc2)C1=O	5561
O=S1(=O)CC(N2CCN(CCO)CC2)CN1CCc1ccccc1 (centres undefined)	4207
CC(CNC(=O)[C@@H](Cc1ccccc1)NC(=O)CC[C@H]1O[C@@H](n2ccc(=O)[nH]c2=O)[C@H](O)[C@@H]1O)c1ccccc1 (some centres undefined)	4433
CC(C)(C)OC(=O)N1CCN(C(=O)c2[nH]cnc2C(=O)Nc2ccccc2F)CC1	3756
CCCCOc1cccc2c(=O)n(CC(=O)Nc3ccc4c(c3)OCCO4)ccc12	2996

This is a subset; rates above refer to the full screens.
